# Screens: PubChem BioAssay, National Center for Advancing Translational Sciences (NCATS)
# HPGD inh: inhibitors of human 15-hydroxyprostaglandin dehydrogenase (HPGD); P15428; purified HPGD, NADH fluorescence kinetic, PGE2 substrate; Potency, µM, for inactives: top-dose activity change, negative = inhibition, actives largely listed as inhibitors; hit rate 4.3% among 150,000; AID 894; active = well fitted inhibition curve with a large enough effect (not every such curve was filed as active); inconclusive = small, poorly fitted or top-dose-only effect, or another doubt; inactive = no such curve, though single readings can be large or run the other way;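 note: top concentration of the series not given in the record; plate controls included wells without enzyme; inactives centre near -10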
# Target sequence (P15428 whole entry, looked up): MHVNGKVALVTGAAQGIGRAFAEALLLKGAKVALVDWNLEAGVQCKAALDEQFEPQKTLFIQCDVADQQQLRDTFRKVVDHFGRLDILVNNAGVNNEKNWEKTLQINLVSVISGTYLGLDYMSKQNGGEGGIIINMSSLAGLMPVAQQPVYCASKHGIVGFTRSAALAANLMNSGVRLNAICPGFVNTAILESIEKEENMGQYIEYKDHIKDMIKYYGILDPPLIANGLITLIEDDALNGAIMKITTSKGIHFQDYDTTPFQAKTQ
#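 20 nM HPGD preincubated 15 min at room temperature with compound in 50 mM Tris-HCl pH 8, 0.01% Tween 20. Started with 1 mM NAD+ and 30 uM prostaglandin E2; NADH fluorescence (360/450 nm) read 5 times over 30-s intervals, last minus first.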
# * hit, by the source's call; ? = inconclusive; & = joins results of further samples; ! = not confirmed by another sample. % is set by controls: 0 for no effect and ±100 for the full control effect; potency is the fitted concentration of half-maximal effect. This is a subset; rates above refer to the full screens.
SMILES,HPGD inh
CC(C)C(NC(=O)c1ccccc1)C(=O)N/N=C\c1ccco1 (configuration not stated),-2.2%
Cc1ccc(-n2c(N)c(C(=O)N3CCOCC3)sc2=S)cc1,10µM*
CCOC(=O)c1cc[n+](CC(=O)c2ccc(F)cc2)cc1,-9.0%
Cc1cc(OCc2ccc(C(=O)NN=C3CCCC3)cc2)ccc1Cl,-18.7%
COc1ccc(N/C(=N\c2nc(C)cc(C)n2)NC(C)=O)cc1OC,-13.6%
O=[N+]([O-])c1ccccc1NCCNS(=O)(=O)c1ccc(Cl)cc1,-18.4%
CCOc1cc(C2C(C(=O)c3ccccc3)=C(C(=O)OC)Nc3nnnn32)ccc1O (configuration not stated),-2.0%
CCCCCCCCCCCCCCCC(=O)NCC(=O)O,-1.8%
CNS(=O)(=O)c1cccc(C(=O)OCC(=O)C23CC4CC(CC(C4)C2)C3)c1,?
CCCCC[C@H](O)/C=C/[C@H]1C=CC(=O)[C@@H]1C/C=C\CCCC(=O)O,22.4µM*!
CC(=O)c1ccc(N(C(=O)CS(=O)CC(=O)Nc2ccc(F)cc2)C(C(=O)NC2CCCCC2)c2cccs2)cc1 (configuration not stated),-16.9%
Nc1nc(SCC(=O)OCc2ccccc2)[nH]c(=O)c1NC(=O)c1ccco1,-6.7%
N#Cc1nc(-c2ccco2)oc1N1CCc2ccccc2C1,?
CN(C)c1ccc(/C=N/N2C(=S)SC(C)(C)C2N(O)C(=O)Nc2ccc([N+](=O)[O-])cc2)cc1 (configuration not stated),-11.8%
Nc1nnc(SCC(=O)Nc2cc(C(F)(F)F)ccc2N2CCOCC2)s1,-17.4%
CCOc1ccc(NS(=O)(=O)c2ccc3c(c2)oc(=O)n3C)cc1,-17.4%
CC1=C(C#N)CCC(=O)N1Cc1ccc(C)cc1,-10.8%
O=C(Cc1ccc(F)cc1)NCCc1ccc(F)cc1,-17.3%
COc1ccc(CC(=O)OCN2C(=O)c3ccccc3C2=O)cc1,-5.6%
O=c1oc(-c2ccco2)nc2sc3c(c12)CCCC3,-30.6%
CC(C)c1cc(C(=O)O)on1,-10.1%
O=C(CCSc1nc(-c2ccco2)cc(C(F)(F)F)n1)NCc1cccs1,-25.4%
O=C1CCCc2nc3nc4ccccc4n3cc21,-23.1%
Cc1cccc(C)c1[N+](=O)[O-],-10.8%
O=C(O)c1ccccc1C(=O)NCC(O)COCC1CC=CCC1 (configuration not stated),-4.6%
Cc1nc2ccc(NS(=O)(=O)c3ccc(C)c(C)c3)cc2s1,-13.1%
CC(C)CCOC(=O)C1[C@H]2C(=O)N(Cc3cccs3)C[C@]23C=C[C@H]1O3 (some centres not stated),-1.7%
CC(=O)NC1CC2CCCC(C1)N2S(=O)(=O)c1ccccc1 (configuration not stated),-9.0%
CN(C)/C=N/c1cc(=O)[nH]c(=O)n1Cc1ccccc1,?
COc1ccccc1NC(=O)c1cnc2n(c1=O)CCS2,-23.0%
CCn1c(SCC(=O)NCC2CCCO2)nnc1-c1c[nH]c2ccccc12 (configuration not stated),31.6µM*
NC(=O)C(=O)NN=C1CCC(c2ccccc2)CC1 (configuration not stated),2.1%
Cc1cc(C)nc(NC(=O)NS(=O)(=O)N2CCCCCC2)n1,-4.1%
Cc1ccc(S(=O)(=O)c2nc(S(=O)(=O)c3ccc(C)cc3)c(NCc3ccco3)s2)cc1,-16.1%
O=C(c1ccc(CN2CCOCC2)cc1)N1CCN(c2ccccc2)CC1,-2.8%
Cc1ccc(S(=O)(=O)N(C)C)cc1NC(=O)COC(=O)c1c(C)noc1C,-5.2%
CCC(C)=O,-13.0%
CC(=O)Cc1nsc(NC(=O)c2csc3c2CCCC3)n1,-0.1%
CCc1nnc(NC(=O)Cc2ccc(OC)cc2)s1,-3.1%
CO/N=C/CC(=O)Nc1ccc(F)cc1F,-7.9%
N#C/C(=C\c1cn(-c2ccccc2)nc1-c1ccccc1)S(=O)(=O)c1ccccc1,?
c1ccc(-c2cnc(SCCN3CCOCC3)n2CC2CCCO2)cc1 (configuration not stated),-7.8%
O=C(NCc1ccccc1)c1cc(-c2ccncc2)nc2ccc(S(=O)(=O)N3CCOCC3)cc12,-22.5%
COc1cc(NS(=O)(=O)c2cccc3nsnc23)cc(OC)c1,-3.4%
COC(=O)CCC(=O)OC,-0.7%
Cc1ccc2nc(-c3cccc(N)c3)[nH]c2c1,?
O=C(Nc1ccc(Cl)cc1)Nc1ccccc1C(=O)NCc1ccco1,-20.2%
CC(=O)c1cccc(N/C=C\C(=O)c2ccc(C)cc2)c1,-23.2%
COCCCNC(=S)N1CCN(S(C)(=O)=O)CC1,-6.9%
Cc1cc(Cl)c(S(=O)(=O)N2CCN(c3cccc(C)c3C)CC2)cc1OCC(N)=O,-5.2%
CCOCC(O)CS(=O)(=O)c1ccccn1 (configuration not stated),-1.6%
COc1ccc(C(=O)/C=C/Nc2c(C)n(C)n(-c3ccccc3)c2=O)cc1OC,-10.4%
O=C(c1ccco1)N1CCn2c1nc1ccccc12,-1.3%
Cc1noc(C)c1S(=O)(=O)N1CCc2nc(-c3ccccc3)c3c(c2C1)CO[C@@H](C)C3,-17.2%
CCCn1c(=N)n(CCOc2ccc(OC)cc2)c2ccccc21,-0.5%
Cn1ncc(Cl)c1C(=O)NCc1cc(C(C)(C)C)n[nH]1,17.8µM*
O=S(=O)(O)c1nc2ccccc2n1CCOc1ccccc1,-4.9%
NC(=O)NCC(N)C(=O)O (configuration not stated),-7.6%
O=C(CSc1nnc(-c2ccco2)n1-c1ccccc1)NCCc1ccccc1,-10.7%
COc1ccc(N2C(N)=C(C#N)C(c3cccnc3)C3=C2CC(C)(C)CC3=O)cc1 (configuration not stated),-7.5%

# Next part:
SMILES,HPGD inh
Nc1c(C(=O)NCc2ccccc2)sc2nc(N3CCOCC3)c3c(c12)CCCC3,?
CCOC(=O)N1CCN(C(=O)c2ccc3c(c2)sc2nc(-c4ccc(OC)cc4)cn23)CC1,-23.2%
CCN(CC)c1nc(N)c2c(N)nc3c(c2c1C#N)CC(c1ccccc1)O3 (configuration not stated),?
CCC1OC2(C)OC(=N)C1(C#N)C(C#N)(C#N)C2c1ccccc1 (configuration not stated),?
Cc1ccc(C(=O)COC(=O)c2cccc(N3C(=O)c4c(C)nc5ccccc5c4C3=O)c2)cc1C,-11.8%
COc1cc2c(cc1OC)-c1cc(OCCN3CCOCC3)nc(=O)n1CC2,?
COc1cc(CC(=O)Nc2ccc3c(c2)CCC3)cc(OC)c1OC,-5.7%
CN(c1ccc(C(=O)NCc2ccccn2)cc1)S(C)(=O)=O,-25.1%
Cc1cc(NS(=O)(=O)c2ccc(NC(=O)CCN3C(=O)c4ccccc4C3=O)cc2)no1,-10.9%
COC(=O)c1ccc(C(=O)OC)c(NC(=O)CCc2ccc(C)o2)c1,?
CCOC(=O)C(=O)Nc1nc(-c2ccccc2)c(CC)s1,-15.9%
Cc1ccc(Cn2c(CN3CCOCC3)nc3c2c(=O)[nH]c(=O)n3C)cc1,-9.9%
CCOC(=O)c1cnc(Nc2nc3ccccc3o2)nc1C,-20.8%
COc1ccc(CNC(=O)C2CC(c3ccccc3[N+](=O)[O-])=NO2)cc1 (configuration not stated),-6.7%
COc1ccc(-c2nc(CS(=O)CC(=O)NCC3CCCO3)c(C)o2)cc1 (configuration not stated),-15.1%
COc1cccc(NC(=O)Cc2nc(-c3ccccc3)sc2-c2ccc(C)cc2)c1,?
COC(=O)/C(=C/c1ccco1)NC(=O)c1ccccc1,-8.8%
O=C(Nc1ccccc1C(=O)NC(Cc1ccccc1)C(=O)NC1CCCCC1)c1ccccc1 (configuration not stated),-23.7%
O=C(Nc1cccc(F)c1)c1cc(S(=O)(=O)N2CCC(C(=O)O)CC2)ccc1F,2.4%
COc1cccc(OCCCCN2CCCCC2)c1,-9.0%

# Of the compounds above, ten contain two or more sulfur atoms.
SMILES,HPGD inh
Cc1ccc(-n2c(N)c(C(=O)N3CCOCC3)sc2=S)cc1,10µM*
CC(=O)c1ccc(N(C(=O)CS(=O)CC(=O)Nc2ccc(F)cc2)C(C(=O)NC2CCCCC2)c2cccs2)cc1 (configuration not stated),-16.9%
CN(C)c1ccc(/C=N/N2C(=S)SC(C)(C)C2N(O)C(=O)Nc2ccc([N+](=O)[O-])cc2)cc1 (configuration not stated),-11.8%
Nc1nnc(SCC(=O)Nc2cc(C(F)(F)F)ccc2N2CCOCC2)s1,-17.4%
O=C(CCSc1nc(-c2ccco2)cc(C(F)(F)F)n1)NCc1cccs1,-25.4%
Cc1nc2ccc(NS(=O)(=O)c3ccc(C)c(C)c3)cc2s1,-13.1%
Cc1ccc(S(=O)(=O)c2nc(S(=O)(=O)c3ccc(C)cc3)c(NCc3ccco3)s2)cc1,-16.1%
CC(=O)Cc1nsc(NC(=O)c2csc3c2CCCC3)n1,-0.1%
COc1cc(NS(=O)(=O)c2cccc3nsnc23)cc(OC)c1,-3.4%
COCCCNC(=S)N1CCN(S(C)(=O)=O)CC1,-6.9%

# (list continues)
SMILES,HPGD inh
CCn1c(SCCC#N)nnc1-c1ccncc1,-2.1%
CCOC(=O)c1nnc(-c2ccccc2)nc1Oc1ccccc1Cl,-8.6%
COc1ccc2c(c1)OCC(Cc1ccc(OC)c(OC(C)=O)c1)C2=O (configuration not stated),-10.8%
COC(=O)c1ccc(COC(=O)c2[nH]c(C)c(C(C)=O)c2C)o1,-11.2%
CCOc1ccc2oc(C(=O)OCC(=O)NC(=O)NC3CCCC3)c(C)c2c1,?
O=C(O)COc1ccccc1O,-5.7%
COc1ccccc1N(CCC#N)C(=O)CSc1nc(-c2ccccc2)cn1N,5.9%
CCCOc1cc(CC(=O)NCc2ccco2)ccc1OC,-10.0%
CCOC(=O)c1c(NC(=O)c2c(Br)cnn2C)c(C#N)nn1-c1ccccc1,?
C(=N/Nc1nnc2c(n1)[nH]c1ccccc12)/c1cccnc1,-9.0%
COc1ccc(Br)cc1CNC(=O)C1CCCN(c2nc3ccccc3o2)C1 (configuration not stated),-2.4%
O=C(COC(=O)/C=C/c1nc2ccccc2s1)Nc1cccc2ccccc12,-18.8%
CCCCC(C(=O)NC(C)(C)C)N(Cc1ccco1)C(=O)c1snc(C(N)=O)c1N (configuration not stated),-12.8%
Cn1c(=O)c2sccc2n2c(CCCC(=O)NCc3ccc4c(c3)OCO4)nnc12,-27.7%
CCCOc1ccc(C(C(=O)OCCN(CC)CC)c2ccccc2)cc1 (configuration not stated),-10.1%
COc1ccc(C(=O)n2nc(-c3ccco3)nc2SC)cc1OC,?
c1ccc(COCc2ccccc2)cc1,-11.5%
COc1ccc(C(=O)NC(=S)NCc2ccccc2)cc1,-8.8%
COc1ccc(-c2nc3c4c(ncn3n2)-c2ccccc2CC42CCCC2)cc1,-4.3%
Cc1ccc(NC(=O)CS(=O)CC(=O)Nc2ccc(N3CCOCC3)cc2)cc1Cl (configuration not stated),-25.3%
COc1cccc([C@@H]2Oc3ccc(OC)cc3C(=O)[C@H]2OC(=O)NCCOc2ccccc2)c1,-13.8%
C[C@@H]1Cc2ccccc2N1NC(=O)c1ccc(Cl)c(S(N)=O)c1 (some centres not stated),-1.3%
CCCCCCOC(=O)C(C#N)c1nc2ccccc2nc1N1CCOCC1 (configuration not stated),-24.4%
COc1ccc(O)c(C(=O)c2cnc3onc(C(C)C)c3c2)c1,-14.6%
CCOC(=O)CN(C(=O)CCC(=O)Nc1cc(C)on1)C(C(=O)NC1CCCC1)c1cccnc1 (configuration not stated),-1.6%
N#CC1=C(N)OC2=C(CC/C2=C\c2ccccc2)C1c1ccccc1 (configuration not stated),?
CC(C)Sc1nc(O)c(Cc2ccccc2)c(=O)[nH]1,-9.9%
CCn1cc(C=O)c2cc(S(=O)(=O)N3CCOCC3)ccc21,-10.6%
COc1ccc(C2(CNC(C)=O)CCOCC2)cc1OC,-1.1%
Cc1ccc2cc(C)c3nnc(SCC(=O)c4cccs4)n3c2c1C,-18.8%
Cc1cc(NC(=O)c2cccc(C(=O)Nc3cc(C)on3)n2)no1,-15.3%
CCOC(=O)c1c(-c2ccc(C)o2)csc1NC(=S)NC(=O)c1cccs1,?
NC(=O)CSc1nnc(-c2ccc(S(=O)(=O)N3CCCC3)cc2)o1,-4.0%
COc1ccc(NS(=O)(=O)c2ccc(C)c(NC(=O)c3ccc(C)c(S(=O)(=O)N4CCOCC4)c3)c2)cc1,-9.7%
Cc1nn(-c2ccccc2)c(N2CCCC2)c1/C=C1\N=C(c2ccc(OC(C)C)cc2)OC1=O,-17.2%
Cc1ccc(S(=O)(=O)CCc2nnc(N)s2)cc1C,-2.1%
COC(=O)[C@H](Cc1ccccc1)NC(=O)O[C@@H]1C(=O)c2cc(Br)ccc2O[C@H]1c1cccc(OC)c1,-10.2%&-10.4%
Cc1ccc(NC(C(N)=O)c2c(C)[nH]c(=O)[nH]c2=O)cc1 (configuration not stated),-2.6%
Cc1ccc(C)c(NC(=O)c2cc3ccccn3n2)c1,-5.0%
C/C(=C\C(=O)O)CC(=O)O,0.6%
CC(=O)N1CCC2(CC1)CN(c1ccccc1)C2,-7.3%
COc1ccc(-c2ccc(C#N)c(SCC(=O)Nc3sc4c(c3C#N)CCC4)n2)cc1OC,?
COc1c(Br)cc(Br)cc1C(=O)O,-7.9%
